eIF4H inh: human eIF4H binding inhibitors, primary screen, translation initiation inhibitor project, biochemical, uHTS, fluorescence polarization; Eukaryotic translation initiation factor 4H (Homo sapiens), Q15056; eIF4H fluorescence polarization binding assay; inhibition, % at 35 µM; 290,000 tested, 0.94% active;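 active = 50% or more with normal probe brightness, or confirmed in later tests; inconclusive = above 50% with abnormal brightness, or retests that disagree; inactive = below 50% or failed in later tests; about a fifth of its hits are not listed in these tables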;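 also: calls also rest on retests at 20 µM and on dose response follow-up; 0% = protein and probe with vehicle and 100% = probe without protein; strong numbers were not always called active; many hits fall short of the cut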
Env fusion inh: inhibitors of HIV-1 Env-driven cell-cell fusion, primary screen, HeLa-JRFL effector, CEM21 target cells, luciferase; inhibition, % at 12.3 µM; 360,000 tested, 1.1% active; AID 651610, 2012;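 active = mean replicate inhibition score of at least 50 and every replicate individually at or above 50; inconclusive = only one of the two criteria met; inactive = mean below 50 and not all replicates reaching 50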;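 also: 0% = plate neutral controls and 100% = maraviroc near 300 nM; one replicate is shown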
PABP polyA inh: PABP poly(A) RNA binding inhibitors, primary screen, biochemical, fluorescence polarization, uHTS; inhibition, % at 35 µM; 290,000 tested, 1% active;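 active = 50% or more with normal probe brightness, or confirmed in later tests; inconclusive = above 50% with abnormal brightness, or retests that disagree; inactive = below 50% or failed in later tests; about a fifth of its hits are not listed in these tables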;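 also: calls also rest on retests at 20 µM and on dose response follow-up; controls were probe without protein and protein plus probe with vehicle; some compounds called inactive have numbers as strong as hits; many hits fall short of the cut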
Target sequence (P11940 whole entry, looked up): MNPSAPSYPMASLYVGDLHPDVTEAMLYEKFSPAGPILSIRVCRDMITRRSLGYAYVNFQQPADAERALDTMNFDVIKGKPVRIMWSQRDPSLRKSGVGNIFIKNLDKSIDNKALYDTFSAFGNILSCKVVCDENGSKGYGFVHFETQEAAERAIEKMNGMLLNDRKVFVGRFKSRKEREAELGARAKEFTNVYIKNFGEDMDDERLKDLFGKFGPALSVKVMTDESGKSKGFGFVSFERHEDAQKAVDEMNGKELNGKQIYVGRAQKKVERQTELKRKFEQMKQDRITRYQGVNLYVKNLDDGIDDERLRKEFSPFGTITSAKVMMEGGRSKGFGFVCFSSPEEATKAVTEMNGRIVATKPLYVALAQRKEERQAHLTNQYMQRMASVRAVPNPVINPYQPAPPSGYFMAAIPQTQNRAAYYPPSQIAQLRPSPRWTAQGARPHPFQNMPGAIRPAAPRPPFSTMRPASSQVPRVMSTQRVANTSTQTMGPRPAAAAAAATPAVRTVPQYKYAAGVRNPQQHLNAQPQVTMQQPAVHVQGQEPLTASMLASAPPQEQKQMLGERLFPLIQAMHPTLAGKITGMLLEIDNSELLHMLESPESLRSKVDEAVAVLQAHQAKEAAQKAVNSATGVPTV
MT1-MMP act inh: blockers of MT1-MMP proenzyme processing, primary screen, HT1080 RFP-PRO-GFP cells, GFP/RFP fluorescence; AID 651647, 2012; Matrix metalloproteinase-14 (Homo sapiens), P50281; 360,000 tested, 0.061% active; GFP/RFP ratio change, % at 20 µM; GFP/RFP ratio fluorescence, overnight; percent of plate control window, DMSO zero;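 active = GFP/RFP ratio change of at least 30% with cell ATP level not reduced by more than half and red fluorescence within 50% of control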; also: strong numbers were not always called active
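Read-out: GFP/RFP fluorescence ratio; Test system: RFP-PRO-GFP reporter HT1080 cells; Compound dosing: single-point 20 µM compound, 1% DMSO; Times: overnight compound exposure at 37 °C.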
Yeast UUG start: modulators of yeast start codon fidelity, primary screen, whole organism, S. cerevisiae, single point, plate reader; S. cerevisiae UUG-firefly luciferase reporter, luminescence/redox ratio; activity score, % at 18.7 µM; 350,000 tested, 0.13% active;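 active = replicate mean at a twofold rise or more, about +100% in these data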;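 also: firefly luciferase made from a UUG start codon reports start codon fidelity; reporter light over untreated wells divided by growth signal over untreated wells; some hits fall short of that in this replicate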
Rce1 inh: yeast Rce1p protease inhibitors, primary screen, biochemical, fluorescence, cell-free homogeneous; AID 2563, 2010; calls only; CAAX prenyl protease 2 (Saccharomyces cerevisiae (strain ATCC 204508 / S288c)), Q03530; 290,000 tested, 0.27% active; yeast membranes, quenched prenylated peptide cleavage fluorescence;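 active = fall in fluorescence gain of 50% or more versus controls, with final raw signal at or below 3038400; inconclusive = same 50% fall but final raw signal above 3038400; inactive = fall in fluorescence gain under 50%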;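 also: plate controls were neutral control wells for no effect and wells lacking membranes for full effect; tested at 10 µM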
Target sequence (Q03530 whole entry, looked up): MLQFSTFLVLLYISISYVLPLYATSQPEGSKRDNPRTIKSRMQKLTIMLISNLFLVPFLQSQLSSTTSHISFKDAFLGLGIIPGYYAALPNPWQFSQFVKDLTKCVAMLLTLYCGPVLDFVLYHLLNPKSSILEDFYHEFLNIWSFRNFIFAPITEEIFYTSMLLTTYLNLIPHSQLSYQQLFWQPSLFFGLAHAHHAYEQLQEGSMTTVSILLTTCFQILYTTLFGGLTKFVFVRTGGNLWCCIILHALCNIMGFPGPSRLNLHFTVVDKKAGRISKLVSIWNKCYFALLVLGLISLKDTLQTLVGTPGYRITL
CSC inhib: cancer stem cell viability inhibitors, primary screen, luminescence; cancer stem cell-like cells viability; inhibition, % at 7.5 µM; 300,000 tested, 1.1% active; AID 2717, 2010;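 active = mean at 75% or more and at least half the replicates too; inconclusive = mean and replicates disagree; tested in HMLE shEcad cells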;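 also: 0% = median of negative and 100% = median of positive control wells; the first replicate is given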
eIF4H inh retest: also measured in eIF4H inh; calls as there; inhibition, %; compound at 20 µM; confirmation average;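 mean of two retest wells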
PABP polyA inh retest: also measured in PABP polyA inh; calls as there; inhibition, %; compound at 20 µM; confirmation repeats;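 mean of two retest wells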
MT1-MMP act inh RFP: recorded beside MT1-MMP act inh, whose call it bears; RFP signal change, %; measured here: RFP expression control read;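 0 = vehicle wells; hits needed this value within 50% of zero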
* hit, by the source's call; i = inactive; ? = inconclusive; · = not tested or not shown.

SMILES | eIF4H inh | Env fusion inh | PABP polyA inh | MT1-MMP act inh | MT1-MMP act inh RFP | Yeast UUG start | Rce1 inh | CSC inhib | others
COc1cc(OC)cc(-c2cc3ncccc3cn2)c1 | · | -10 | · | -2 | 1 | 40 | · | -3
COc1ccc(Nc2cc(C(=O)NCCCN3CCOCC3)c3ccccc3n2)cc1 | 9 | 8 | 0 | -3 | -7 | -21 | i | -28
CCN(CC(=O)Nc1c(C(=O)OC)[nH]c2ccc(Cl)cc12)c1ccc2c(c1)OCO2 | 44 | · | 59 | -6 | -10 | · | i | -10 | eIF4H inh retest=44;PABP polyA inh retest=33
CCOc1cc(N2CCOCC2)c(OCC)cc1NC(=O)COC(=O)c1c(C)noc1C | · | -1 | · | 4 | 0 | -6 | · | ·
CCOC(=O)c1cc(OCC(=O)NC(C)C(C)C)cc(C(=O)OCC)c1 (stereo unspecified) | -5 | · | -10 | -3 | -2 | -14 | i | -6
COC(=O)c1ccccc1NC(=O)NCc1ccccc1 | -1 | 0 | 8 | -2 | -6 | -5 | i | 12
Cc1nn(-c2ccccc2)c(Cl)c1/C=N/NC(=O)c1ccn[nH]1 | -10 | -103 | 9 | -5 | 1 | -30 | i | -3
O=C(c1ccc(CS(=O)c2ccccc2Cl)o1)N1CCN(C2CCCCC2)CC1 (stereo unspecified) | · | 4 | · | -7 | -2 | -3 | · | ·
NC(=O)CSc1nnc(-c2ccc(S(=O)(=O)N3CCCCC3)cc2)n1-c1ccccc1 | 1 | · | 4 | -8 | 1 | -10 | · | -2
O=C(Cc1c(F)cccc1Cl)Nc1cccc(S(=O)(=O)NC2=NCCCCC2)c1 | · | -33 | · | -1 | -4 | -9 | i | ·
C/C(=N\N(Cc1ccccc1)c1ccccc1)c1ccncc1 | -1 | -7 | -7 | -11 | -10 | · | i | -4
CCOc1ccc2[nH]c(=O)c(CN(CCO)C(=O)c3ccc(F)cc3)cc2c1 | -7 | · | -2 | 16 | 2 | · | i | -3
CC(C)(C)NC(=O)C(c1ccncc1)N(Cc1ccc(F)cc1)C(=O)c1ccc(-c2ccccc2)[nH]1 (stereo unspecified) | 2 | -2 | -8 | -52 | -41 | · | i | 8
CCOc1cc(C(=O)NCC(C)(C)CNC(=O)c2cc(OCC)c(OCC)c(OCC)c2)cc(OCC)c1OCC | · | 25 | · | -2 | -8 | 16 | · | 23
CCOC(=O)CN1C(=O)C(O)(C2CCc3ccccc3C2=O)c2ccccc21 (stereo unspecified) | -12 | · | 0 | -5 | -1 | 2 | i | -1
Cc1nc(NC(=O)COC(=O)C2CC3CCCC(C2)C3=O)c(Cl)cc1Cl (stereo unspecified) | · | 8 | · | 3 | 4 | -6 | · | -4
CCOC(=O)CC(=O)CSc1nc(-c2ccccc2)cc(-c2ccc(Cl)cc2)c1C#N | ? | 7 | ? | -21 | -10 | -8 | i | 33
CN(C)S(=O)(=O)c1ccc(C(=O)NCC(=O)N/N=C/c2ccco2)cc1 | -5 | 14 | 30 | -5 | 0 | · | i | 4
Cc1cc(C(=O)Nc2ccc(N3CCCC3)c(Cl)c2)ccc1[N+](=O)[O-] | 2 | -33 | 0 | 4 | -4 | · | i | 33
COc1ccccc1-n1cc(-c2ccccc2)[nH]c1=S | -9 | 5 | 5 | -1 | 1 | · | i | -14
O=C(N/N=C/c1ccc(N2CCOCC2)cc1)c1ccc(O)cc1 | -4 | 13 | -9 | -4 | 4 | -17 | i | 14
COc1cccc(C(=O)OCC(=O)c2ccc(Br)s2)c1 | 9 | 4 | -1 | -2 | 2 | -24 | · | -1
CC1CN(c2ncnc3c2oc2ccccc23)CC(C)O1 (stereo unspecified) | -11 | · | 17 | 0 | -4 | -10 | i | 4
CCOC(=O)c1cnc2c(cnn2C)c1NCCCN(C)C | -7 | -29 | -15 | -31 | -8 | -17 | i | 15
COc1ccc(N(CC(=O)Nc2c(C)n(C)n(-c3ccccc3)c2=O)S(=O)(=O)c2ccc(F)cc2)cc1 | 2 | 6 | 22 | · | · | · | i | -9
O=C1CC(C(=O)N2CCCc3ccccc32)CN1c1ccc(Cl)cc1 (stereo unspecified) | -3 | 2 | 12 | 0 | 2 | -14 | · | 6
CC(C)(C)c1cc(OC(=O)c2ccccc2F)ccc1O | 2 | 24 | -1 | 1 | 1 | -13 | i | -19
O=C(NCc1cccnc1)c1ccc2c(c1)C(=O)N(Cc1ccccc1)C2=O | -4 | 8 | -6 | 2 | 1 | -25 | i | 1
CN(CC1CCCN(CCc2ccc(F)cc2)C1)C(=O)CCC(N)=O (stereo unspecified) | 12 | -2 | 8 | 0 | 2 | -14 | i | 9
O=C(Nc1ccc(Cl)c(Cl)c1)Nc1nnc(-c2ccncc2)s1 | 74* | 50 | 0.7* | -14 | -20 | · | · | 53 | eIF4H inh retest=106*;PABP polyA inh retest=56*
COc1ccccc1N1CCN(S(=O)(=O)c2c[nH]c(=O)[nH]c2=O)CC1 | · | 7 | · | -1 | 1 | -1 | i | -6
CC(C)CNC(=O)NC1(C(F)(F)F)Oc2ccccc2O1 | -5 | 17 | ? | 7 | -7 | 2 | i | 21
O=c1c(OC2OC(CO)C(O)C(O)C2O)c(-c2ccc(O)c(O)c2)oc2cc(O)cc(O)c12 (stereo unspecified) | 6 | 10 | 6 | 9 | -2 | -1 | i | -12
O=C(CSc1nnnn1-c1ccccc1)Nc1ccc(N2CCOCC2)c(Cl)c1 | -6 | · | 36 | 3 | 0 | -10 | i | 9
CCN(CC)c1ccc(/C=N/NS(=O)(=O)c2ccc(CNC(C)=O)cc2)cc1 | -13 | -11 | -7 | 0 | 6 | · | i | 5
CCOc1ccc(C(=O)CCCC(=O)c2ccc(OCC)cc2)cc1 | -2 | -78 | -8 | 4 | 3 | -14 | i | -1
CC[C@@H](C)[C@H](N)C(=O)NC[C@H]1O[C@@H](n2cnc3c(N)ncnc32)[C@H](O)[C@@H]1O | · | 13 | · | 3 | 6 | 0 | · | ·
CC(C)(C)c1ccc(NC(=O)C2CCCN(c3cnccn3)C2)cc1 (stereo unspecified) | 0 | 1 | -3 | 3 | 0 | -16 | i | ·
CCOC(=O)c1csc(NC(=O)c2ccc(N3C(=O)CCC3=O)cc2)n1 | 0 | 11 | 9 | 0 | -1 | -8 | i | -11
O=C(Nc1ccc2[nH]ncc2c1)c1ccccc1Br | 1 | -17 | 5 | -4 | -5 | -63 | i | -11
COc1ccc(N2C[C@H](C)[C@@H](CC(=O)Nc3ccc(Br)cc3)C2=O)cc1 | · | -15 | · | 5 | 5 | -8 | · | ·
CCN(Cc1ccccc1)C(=O)C1CCN(Cc2sccc2C)CC1 | -2 | 30 | 6 | 2 | 0 | 1 | i | 21
C/C(=N\N=C(N)N)c1cccc(Cl)c1 | -3 | 3 | -4 | 0 | -1 | 3 | i | 7
COc1ccc(CC(NC(C)=O)C(=O)NC2CCN(c3nnnn3-c3ccccc3)CC2)cc1 (stereo unspecified) | 2 | -4 | 3 | 4 | -1 | 5 | i | ·
CC(C)Cn1cc(C(=O)N2CCC(C)CC2)c2c3ccccc3n(C)c2c1=O | 7 | 12 | -2 | -1 | 3 | · | i | -13
O=C(O)c1cccc(Nc2nc(Nc3ccccc3)nc(N3CCCC3)n2)c1 | -1 | 24 | 4 | -3 | -2 | · | · | -8
COc1ccc(C(=O)N2CCCC2(C)C(=O)O)cc1C(F)(F)F (stereo unspecified) | · | 10 | · | 0 | 5 | -10 | · | ·
O=C(Nn1cnnc1)c1cc2c(s1)CCCC2 | 0 | -106 | -8 | 0 | 2 | -18 | i | -5
Cn1c(=O)n(C)c2cc(NS(=O)(=O)c3ccc(Br)s3)ccc21 | -4 | -7 | -10 | 17 | 8 | -10 | i | -13
COCC(=O)N(CCc1ccc(OC)cc1)Cc1nc2ccccc2c(=O)[nH]1 | -4 | · | -9 | 7 | 1 | -9 | i | 3
(listing goes on)
SMILES | eIF4H inh | Env fusion inh | PABP polyA inh | MT1-MMP act inh | MT1-MMP act inh RFP | Yeast UUG start | Rce1 inh | CSC inhib | others
COc1ccc(NC(=O)Cn2c([N+](=O)[O-])cnc2C)cc1Cl | 5 | 0 | 8 | 7 | 5 | -3 | i | -6
COC(=O)C1=NN(C(=O)c2ccccc2)C(O)(c2ccc([N+](=O)[O-])cc2)C1 (stereo unspecified) | -10 | -65 | -8 | -1 | 4 | -41 | i | 4
CCc1nnc(NS(=O)(=O)c2ccc(NC(=S)NC(=O)c3ccc(OC)c(OC)c3)cc2)s1 | 0 | 7 | -8 | 0 | 4 | · | i | 2
COc1ccc(S(=O)(=O)NC(C)C(=O)Nc2ccccc2C(F)(F)F)cc1 (stereo unspecified) | -7 | · | -1 | -6 | -6 | -5 | i | -11
CC(C)c1ccc(O)c(=O)cc1 | · | -40 | · | 6 | -1 | -26 | · | ·
COc1ccc(C(O)c2ncc(-c3cccc(C(F)(F)F)c3)[nH]2)cc1F (stereo unspecified) | · | 18 | · | 4 | -1 | -10 | · | ·
Cc1cccc(C(=O)OCC(=O)Nc2ccc(F)cc2)c1 | -9 | -22 | 0 | 0 | -1 | -17 | i | -16
Cc1nc2ncnn2c(C)c1Cc1ccccc1Cl | -10 | 24 | -7 | -2 | 6 | -15 | i | 1
COc1ccc(NC(=O)N2CCCC(CCC(=O)N(C)CCc3ccccn3)C2)cc1 (stereo unspecified) | 12 | 1 | -8 | 10 | 5 | · | i | -11
O=C(COC(=O)/C=C/c1ccc(C(F)(F)F)cc1)NC1CCS(=O)(=O)C1 (stereo unspecified) | · | -8 | · | -1 | 3 | -9 | i | 13
CCCN1CCc2c(sc(NC(=O)c3ccc(S(=O)(=O)N(C)c4ccccc4)cc3)c2C(=O)NC)C1 | ? | 16 | ? | -76 | 0 | 1 | i | 78*
O=C(Nc1c(-c2ccccc2)nc2ccccn12)c1cccc(F)c1 | -6 | 6 | 0 | -6 | -5 | -2 | i | 4
CS(=O)(=O)c1cccc(-c2ccc3nncn3c2)c1 | · | -69 | · | 9 | 6 | -11 | · | ·
CCCCN(CC)C(=O)Cc1ccc(Br)cc1 | -5 | 22 | ? | -1 | 1 | · | i | -4
COCCNc1nc(N)c([N+](=O)[O-])c(NCC2CCCO2)n1 (stereo unspecified) | 6 | -68 | 8 | -3 | 3 | -12 | i | 8
CCN(CC)S(=O)(=O)c1ccc(O)c(C(=O)OCC(=O)NC2CCCC2)c1 | 9 | -4 | -2 | -1 | 1 | 6 | i | -10

Grouped by structure: those above containing a furan ring, fused or not (3)
SMILES | eIF4H inh | Env fusion inh | PABP polyA inh | MT1-MMP act inh | MT1-MMP act inh RFP | Yeast UUG start | Rce1 inh | CSC inhib | others
O=C(c1ccc(CS(=O)c2ccccc2Cl)o1)N1CCN(C2CCCCC2)CC1 (stereo unspecified) | · | 4 | · | -7 | -2 | -3 | · | ·
CN(C)S(=O)(=O)c1ccc(C(=O)NCC(=O)N/N=C/c2ccco2)cc1 | -5 | 14 | 30 | -5 | 0 | · | i | 4
CC1CN(c2ncnc3c2oc2ccccc23)CC(C)O1 (stereo unspecified) | -11 | · | 17 | 0 | -4 | -10 | i | 4
